UCH37 inh: human UCH37 deubiquitinating enzyme inhibition. actives 0.33% (n = 330,000). purified proteasome/UCH37, Ub-AMC cleavage fluorescence. inhibition, % (test concentration not listed). AID 588478;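 active means mean of two replicates above 20%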;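 further: 0% = compound-free wells with enzyme and 100% = wells lacking proteasome; stock transfer was 100 nL into about 20 µL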
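Reagent: Ub-AMC substrate; assay system: Proteasome-associated human UCH37 deubiquitinase; controls: no-proteasome and no-compound wells; read-out: % inhibition of Ub-AMC cleavage fluorescence; timing: 30 min preincubation with enzyme, 25 min cleavage at room temperature; signal: AMC fluorescence from Ub-AMC cleavage, excitation 355 nm, emission 460 nm; buffer or medium: Tris-HCl pH 7.4 plus ovalbumin, ATP-MgCl2, DTT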
HNF4A DNA FP: change in binding of human HNF4 alpha to DNA. P41235. HNF4a-FITC DNA binding, fluorescence polarization, 1 h. activity change, % at 10 µM. actives 0.3% (n = 360,000). AID 1224865; in the data active means activity change above about 30%, passing the limit was not always enough;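 further: controls were the assay level and a saturating level of protein; the project sought stronger binding though the title names inhibitors; some compounds called inactive have numbers as strong as hits; positive values seem to mean higher polarization but the record does not say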
Target sequence (P41235 whole entry, looked up): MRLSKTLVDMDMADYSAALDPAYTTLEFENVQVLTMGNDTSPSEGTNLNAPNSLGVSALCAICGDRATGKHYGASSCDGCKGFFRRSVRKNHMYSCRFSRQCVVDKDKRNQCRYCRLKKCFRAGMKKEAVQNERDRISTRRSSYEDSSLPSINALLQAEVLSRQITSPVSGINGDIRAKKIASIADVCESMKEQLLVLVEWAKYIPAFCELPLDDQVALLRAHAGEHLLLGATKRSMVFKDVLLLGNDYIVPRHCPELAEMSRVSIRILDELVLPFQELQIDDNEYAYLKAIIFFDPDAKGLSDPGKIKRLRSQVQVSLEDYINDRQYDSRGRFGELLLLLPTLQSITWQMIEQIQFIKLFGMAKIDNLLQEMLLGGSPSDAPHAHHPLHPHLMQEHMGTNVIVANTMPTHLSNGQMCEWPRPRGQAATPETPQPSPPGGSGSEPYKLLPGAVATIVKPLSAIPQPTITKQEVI
MLL AF4-AF9 inh: inhibitors of human MLL-AF4/AF9 interaction. AlphaScreen, biotin-AF4 peptide binding to FLAG-AF9. inhibition, % at 10 µM. actives 0.47% (n = 350,000). AID 651704. P42568;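 active means every replicate reaching a set inhibition limit, whatever the replicate mean, cut at about 25% in these data; inconclusive means mean inhibition reaches that limit but some replicates miss it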;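 further: 0% = plate neutral control median and 100% = total signal loss; the record names both 10 and 1 µM as test concentration; the first replicate is given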
Target sequence (P42568 whole entry, looked up): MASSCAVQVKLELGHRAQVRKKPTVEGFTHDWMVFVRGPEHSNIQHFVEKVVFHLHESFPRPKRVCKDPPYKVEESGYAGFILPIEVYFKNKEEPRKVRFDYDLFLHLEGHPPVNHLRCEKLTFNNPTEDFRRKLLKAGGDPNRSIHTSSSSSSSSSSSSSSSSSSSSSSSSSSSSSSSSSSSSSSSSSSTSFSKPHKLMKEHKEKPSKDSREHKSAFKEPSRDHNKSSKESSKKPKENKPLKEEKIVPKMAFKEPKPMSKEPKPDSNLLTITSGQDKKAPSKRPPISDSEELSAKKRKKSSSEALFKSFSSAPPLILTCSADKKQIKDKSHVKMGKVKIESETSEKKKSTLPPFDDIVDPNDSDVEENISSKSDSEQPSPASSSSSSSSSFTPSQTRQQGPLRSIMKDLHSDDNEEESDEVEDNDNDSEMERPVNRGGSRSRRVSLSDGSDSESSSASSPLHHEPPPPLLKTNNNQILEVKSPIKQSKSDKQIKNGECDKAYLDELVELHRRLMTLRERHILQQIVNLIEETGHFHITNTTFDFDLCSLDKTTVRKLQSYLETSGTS
RanGTP-Impb inh: disruptors of Ran-importin-beta complex formation – biochemical, FRET, CFP-Ran, YFP-importin-beta, homogeneous, primary screen. cell-free CFP-Ran/YFP-importin-beta FRET ratio. inhibition, % (concentration not given with the values). actives 1.1% (n = 300,000);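 active means most replicates above 15%; inconclusive means exactly half above 15%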;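 further: 0% = DMSO wells and 100% = Ran loaded with GDP instead of GTP; wells of about 40 µL received 100 nL stock; the first replicate is given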
Vif TR-FRET: inhibitors of Vif binding to APOBEC3G peptide, primary screen, biochemical, TR-FRET, GST-Vif 1-94, biotin-A3G peptide, dose response retest (AID 1117319). TR-FRET GST-Vif / biotin-A3G peptide binding; higher % means a stronger effect; test concentration not given here; strong numbers were not always called active. inhibition, %, or IC50 in µM where a hit was titrated. actives 0.57% (n = 260,000);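 active means above the screen mean plus three standard deviations and confirmed in dose response; inconclusive means results disagree or hit not tested in dose response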;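 further: Vif residues 1-94 fused to GST binding biotinylated APOBEC3G peptide 110-148; 0% = full assay without inhibitor and 100% = GST in place of GST-Vif; retest series ran down from 100 µM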
FGF22 binding: FGF22 (human) thermal shift binding; calls only at 9.99 µM; AID 651658; actives 1.5% (n = 340,000); recombinant FGF22 thermal shift, SYPRO orange fluorescence; percent of sucrose octasulfate shift, DMSO zero;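 active means melting point raised past a set limit in the mean and every replicate; inconclusive means no clear call; three in four hits are not shown here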
E coli growth: inhibitors of Escherichia coli growth; OD600, 23 h; hits give low values; OD600 absorbance (no concentration beside the values); actives 0.21% (n = 330,000); AID 1053175;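 active means OD600 absorbance below the run mean of sample wells minus 3.6 SD, in any replicate, cut at about 0.56 in these data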;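 further: stock transfer was 300 nL into about 60 µL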
Active calls of the source: *; i = inactive; ? = inconclusive; . = not tested or not shown. An excerpt (hit frequency here may not be typical).

canonical_smiles,UCH37 inh,HNF4A DNA FP,MLL AF4-AF9 inh,RanGTP-Impb inh,Vif TR-FRET,FGF22 binding,E coli growth
Cc1ccc(S(=O)(=O)N2CCCC(C(=O)NCCc3ccc(S(N)(=O)=O)cc3)C2)cc1 (stereo unspecified),3.2,1.5,-0.6,?,2%,i,0.7
O=C(NC(=S)Nc1ccc2c(c1)OCCO2)c1ccco1,3.4,-3.1,4.1,4.9,?,i,0.62
Cc1ccccc1NC(=O)C1CCCN1S(=O)(=O)c1cccc2cccnc12 (stereo unspecified),6.3,-2.4,.,5.2,-6%,.,0.74
COc1ccc(N2CCN(C(=O)Cn3c(=O)[nH]c4ccccc4c3=O)CC2)cc1,-1.5,.,-1.7,3.9,-5%,i,0.73
CCN(CCNC(=O)CN(C)S(=O)(=O)c1cccc2nsnc12)c1ccccc1,3.7,1.8,.,?,7%,.,0.71
N#CCC(=O)Nc1ccc(C(=O)Nc2cccnc2)cc1,1.1,1.8,-10,-2.4,9%,i,0.65
CSc1nc(N)nc2c1ncn2CC(=O)NCCCc1ccccc1,-1.8,2.2,-15,.,1%,i,0.67
CSC1=NC2(C)CCCCC2C12C=CC(=O)C=C2 (stereo unspecified),4.8,3.6,-0.3,-0.4,18%,i,0.67
CC1=C(C(=O)N2CCOCC2)CC(CC(=O)NC(c2ccccc2)c2ccccc2)C(=O)N1Cc1ccc(C(C)(C)C)cc1 (stereo unspecified),.,-3.9,-1.0,.,1%,i,.
O=C(Nc1sc2c(c1C(=O)NC1CCCCC1)CCC2)c1ccco1,-255,3.6,-38,56*,1%,i,0.75
CCOc1ccc(NC(=O)Nc2ccc3c(c2)CCC3)cc1,3.8,-6.4,-1.3,0.0,.,i,0.65
COc1cc(C(=O)OCC(C)=O)cc(NC(=O)c2ccco2)c1OC,6.2,4.0,-1.6,5.8,.,i,0.66
c1ccc(Nc2nc(-c3ccncc3)cs2)nc1,-2.9,0.2,.,0.7,-4%,.,0.65
CCNC(=O)/C(=C/c1ccco1)NC(=O)/C=C/c1ccccc1,4.3,7.4,.,1.6,14%,.,0.65
CN(C)S(=O)(=O)c1ccc2c(c1)C(=NNC(N)=O)c1cc(S(=O)(=O)N(C)C)ccc1-2,-5.4,0.5,-0.7,-1.5,-13%,i,0.71
CCOC(=O)Cc1csc(NC(=O)c2cc(OC)cc(OC)c2)n1,1.0,0.2,.,-1.1,8%,.,0.68
FC(F)(F)c1cc(-c2ccccc2)nc(-n2cc(Cl)cn2)n1,1.7,-0.9,4.5,0.8,8%,i,0.66
COc1ccc(-c2nc(O)c3cnccn23)cc1,1.6,3.3,2.9,1.7,.,i,0.71
CCCC(=O)Nn1cnc2c(c1=O)C1(CCCC1)Cc1ccccc1-2,3.7,-3.4,.,0.3,3%,.,0.74
COc1ccc(NCc2nnc(SCC(=O)NNC(=O)c3ccc(C)cc3)n2C)cc1,4.9,-1.0,-1.6,5.7,-8%,i,0.67
CCOc1ccc2cc(C#N)c(SCC(=O)N3CCC(C)CC3)nc2c1,-81,18,.,0.9,-70%,.,0.76
CCN(CC)CCNc1ccc(CO)c2oc3cc(Cl)ccc3c(=O)c12,.,2.0,9.5,.,.,i,.
CC(C)(C)c1ccc(C(=O)N2CCC2(C)C(=O)Nc2ccc3[nH]ncc3c2)cc1 (stereo unspecified),.,3.5,4.7,.,.,i,.
NC(=O)NOCc1c(Cl)cccc1Cl,-0.3,3.8,-3.2,-1.6,11%,i,0.69
O=C(NCCc1nnc2ccc(NCc3ccccc3Cl)nn12)c1ccccc1,0.9,1.8,16,4.6,-5%,i,0.7
Cc1ccc(C)c(NS(=O)(=O)c2cc(Br)cnc2N)c1,5.1,-2.6,.,-4.9,?,.,0.75
COc1ccc(NC(=O)NCCCN2CCCC2=O)c(OC)c1,-0.2,-0.7,.,-4.0,-3%,.,0.69
O=C(Nc1ccc(Cl)c(Cl)c1)Nc1nccs1,.,2.9,.,1.4,.,i,.
CCC(=O)c1ccc(OCC(=O)NCC2(N3CCCCC3)CCCCC2)cc1,3.0,2.5,1.0,3.6,.,i,0.68
CCOC(=O)c1ccc(NC(=O)CSc2nnc(CNC(=O)c3c(F)cccc3Cl)o2)cc1,1.3,5.0,.,-3.1,10%,.,0.7
CCCCCCC1CC(CSc2ncn[nH]2)OC1=O (stereo unspecified),0.9,-0.4,.,3.6,-3%,.,0.69
COc1ccc(C(=O)NCC(=O)N2CCc3ccccc3C2)cc1,4.9,1.0,-1.9,2.8,.,.,0.67
O=C(O)C1C2C=CC(C2)C1C(=O)Nc1ccccc1Br (stereo unspecified),2.0,0.8,2.5,4.4,.,i,0.63
CCOC(=O)C(CC)Sc1nc2c(c(=O)[nH]c(=O)n2C)n1C/C=C(/C)Cl (stereo unspecified),2.7,2.9,.,2.1,-2%,.,0.78
Brc1ccc(OCCOCCOc2cccc3cccnc23)cc1,2.0,0.8,.,1.8,-3%,.,0.75
NS(=O)(=O)c1ccc(N2CCN(S(=O)(=O)Cc3ccccc3)CC2)nc1,0.9,2.9,-1.5,.,-15%,i,0.67
COc1ccccc1N1CCN(C2CCCN(C(=O)CN3CCCC3=O)C2)CC1 (stereo unspecified),0.8,4.0,0.1,0.6,.,i,0.71
CC(=O)c1c(C)[nH]c(C(=O)OCc2ccccc2)c1C,-0.3,1.5,1.8,0.3,1%,.,0.72
CCN(CC)S(=O)(=O)c1ccc2[nH]c(=O)cc(C(=O)Nc3ccc(C)c(S(=O)(=O)N(CC)CC)c3)c2c1,1.3,3.3,.,3.1,?,.,0.69
COCCN(CC(=O)Nc1ccccc1C(F)(F)F)C(=O)/C=C/c1cc(Cl)c2c(c1)OCO2,-9.6,4.8,-0.4,.,1%,i,0.71
Cc1noc(C)c1COc1cccc(C(=O)NC(C)(C)C)c1,2.7,-8.0,0.5,3.0,.,i,0.64
Cc1nc2c3cc(Cl)ccc3n(CCN3CCCCC3)c2s1,5.0,1.6,.,5.3,-6%,.,0.68
COc1ccc(C(=O)Nc2ccccc2C(=O)NCc2ccco2)cc1OC,3.5,7.2,.,1.3,2%,.,0.72
COc1ccccc1C(=O)NCCC(=O)NCc1ccccn1,6.7,3.1,1.3,.,-4%,i,0.7
CCSc1ccccc1C(=O)Nc1cccc(OC)c1,4.9,4.2,.,-3.0,6%,.,0.72
O=C(Nc1cccc(OC(F)(F)F)c1)c1ccc(Br)o1,2.9,-1.1,.,4.7,73%,.,0.64
Cc1ccc(-c2cc(C(=O)Nc3ccc(S(=O)(=O)Nc4ncccn4)cc3)c3ccccc3n2)cc1,-32,-0.3,.,2.2,.,.,0.72
CC1(C)Oc2ccc(C(=O)NNC(=O)Nc3ccccc3)cc2NC1=O,0.1,0.4,-2.4,-0.9,.,i,0.68
Cc1ccnc(NS(=O)(=O)c2ccc(NC(=O)c3ccccc3F)cc2)n1,1.5,1.0,-0.1,-1.7,-6%,i,0.71
Cc1cc(/C=C2\C(=O)NN(c3ccccc3)C2=O)c(C)n1-c1ccccc1O,9.7,-0.7,-4.1,-2.1,24%,i,0.76

Carrying on.
canonical_smiles,UCH37 inh,HNF4A DNA FP,MLL AF4-AF9 inh,RanGTP-Impb inh,Vif TR-FRET,FGF22 binding,E coli growth
CC(=O)Oc1ccccc1Cn1c(C)c(C(=O)N(C)Cc2ccc(F)cc2)sc1=O,.,1.1,0.4,.,.,i,.
Cc1cccc(Cc2cccc(C)c2O)c1O,2.7,-3.4,-0.6,.,.,i,0.61
Cc1cc(C)c(S(=O)(=O)c2ccccc2C)c(OCC(C)(C)C)n1,1.8,-0.8,.,-4.0,3%,.,0.72
CCc1nnc(NS(=O)(=O)c2ccc(Nc3ccc4nonc4c3[N+](=O)[O-])cc2)s1,2.5,-1.1,-0.8,-2.3,5%,i,0.73
CCOC(=O)C/C(C)=N/NC(=O)CN(c1ccc(Br)cc1)S(=O)(=O)c1ccccc1,.,-5.5,.,-5.9,-3%,.,.
CC(=O)NCCC(=O)Nc1nc(-c2cccs2)c(-c2cccs2)s1,-46,0.5,.,-0.5,.,.,0.7
O=C(NCC1CCCO1)c1cn(-c2ccccc2)nc1-c1ccccc1 (stereo unspecified),5.3,-1.7,-1.8,1.1,-2%,i,0.71
COc1ccc([C@H]2CC(=O)C=C(c3ccc4ncccc4c3)C2)cc1OC,-0.3,0.7,8.4,.,.,i,.
Cc1cc(CNC(=O)[C@H](C)[C@@H]2C[C@@]2(C)[C@@H](NC(=O)OCc2ccccc2)c2ccccc2)nn1C,1.0,-0.6,-1.6,.,1%,i,.
CCc1sc(C(=O)N(CCCOC)c2c(N)n(CC(C)C)c(=O)[nH]c2=O)cc1C,0.8,-7.0,-23,.,3%,i,0.69
COc1ccc(NS(=O)(=O)c2cccc(NC(=O)C34CCC(CC3)C4)c2)cc1,0.0,0.2,4.4,2.7,1%,i,0.68
O=C(COC(=O)/C=C/c1cccc(F)c1)NC1CC1,-0.9,-2.6,1.3,.,.,i,0.69
OCCC1CN(Cc2ccncc2)CCN1C1CCCC1 (stereo unspecified),-0.8,-0.6,0.4,1.8,24%,i,0.7
CCOC(=O)C(C)Sc1nnc2n1C(C)(C)Cc1ccccc1-2 (stereo unspecified),6.3,-2.0,.,3.8,70%,.,0.68
COc1ccc(/C=N/Nc2nnc(Cc3ccc(OC)c(OC)c3)c(=O)[nH]2)cc1OC,.,0.3,-38,1.0,8%,i,.
Cc1c(N=Cc2cc3c(cc2[N+](=O)[O-])OCO3)cccc1[N+](=O)[O-],1.9,-1.0,-0.1,13,.,i,0.62
Cc1ccccc1NS(=O)(=O)c1ccc(C)c(C(=O)N2CCOCC2)c1,-0.4,0.2,-0.8,-1.9,31%,i,0.69
Cc1cc(=O)oc2cc(OCC(=O)NCCN3CCOCC3)c(Cl)cc12,-7.9,-0.4,1.3,-2.5,2%,i,0.64
CCCC(NS(=O)(=O)c1ccc(-c2ccc(=O)[nH]n2)s1)c1cccs1 (stereo unspecified),2.2,1.5,2.4,-1.9,.,i,0.66
CC1=C(C(=O)OC(C)C)C(C2CC=CCC2)NC(=O)N1 (stereo unspecified),-0.7,3.9,.,6.4,-3%,.,0.68
COc1ccc(NC(=O)C2CCCN2S(=O)(=O)c2ccc3c(c2)C(C)(C)C(=O)N3C)cc1 (stereo unspecified),.,-1.4,5.0,.,.,i,.
Cc1cc(/C=C2\Sc3ccccc3N2C)cc(C)[n+]1CC1CCCO1 (stereo unspecified),18,23,1.8,.,-11%,i,0.46*
CCC(c1nnnn1C1CCCC1)N1CCN(c2cccc(OC)c2)CC1 (stereo unspecified),2.5,-5.5,5.9,-2.7,.,i,0.71
Cc1cc(C)n(CCCNC(=O)CN(C)S(=O)(=O)c2ccc(Cl)cc2)n1,2.3,2.1,-5.0,4.2,.,i,0.66

Three of the entries above in order of their number in Vif TR-FRET, highest first:
canonical_smiles,UCH37 inh,HNF4A DNA FP,MLL AF4-AF9 inh,RanGTP-Impb inh,Vif TR-FRET,FGF22 binding,E coli growth
OCCC1CN(Cc2ccncc2)CCN1C1CCCC1 (stereo unspecified),-0.8,-0.6,0.4,1.8,24%,i,0.7
Cc1cc(C)c(S(=O)(=O)c2ccccc2C)c(OCC(C)(C)C)n1,1.8,-0.8,.,-4.0,3%,.,0.72
CCOC(=O)C/C(C)=N/NC(=O)CN(c1ccc(Br)cc1)S(=O)(=O)c1ccccc1,.,-5.5,.,-5.9,-3%,.,.
